DUX4 inh – inhibitors of DUX4-driven ZSCAN4 reporter expression, primary screen, 293T cells, Gaussia and Italica luciferase; 293T-iDUX4 ZSCAN4-Gaussia luciferase reporter, 24 h; hits give low values; activity change, negative = inhibition, % (test concentration not listed); 0.8% of 37,000 active; AID 1224904, 2016;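 active = -10% or lower and over 25 points stronger than a control reporter; inconclusive = -10% or lower with a smaller gap; inactive = above -10%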;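 also: 0% = median of neutral control wells and -100% = median of positive control wells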
DUX4 inh difference – further read-out of DUX4 inh, marked with its call; Gaussia minus Italica difference, %; measured here: selective DUX4 reporter inhibition;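 worked out from the two reporters; negative = selective loss of the DUX4 reporter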
DUX4 inh control – also measured in DUX4 inh; calls as there; activity change, negative = inhibition, %; measured here: Italica tet-on control reporter;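 0 = neutral control and -100 = positive control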
The depositor's hits bear a star; ? = inconclusive; nt = no result given; & = joins results of further samples.

Under each structure – DUX4 inh difference	DUX4 inh control	DUX4 inh
1) CCCC#Cc1ccc([C@@H]2[C@@H](CO)N3C(=O)CN(C(=O)c4cccnc4)C[C@@H]23)cc1
  -7	1.8	-5
2) COc1ccc(S(=O)(=O)N[C@@H]2CC[C@H](CCNC(=O)Cc3ccccn3)O[C@@H]2CO)cc1
  6	-0.7	5
3) Cc1ccccc1-c1ccc(C2[C@@H]3CN(C(=O)Nc4cccc(F)c4)C[C@H]2N3)cc1 (stereo not given in full)
  nt	nt	?
4) C[C@@H]1CCCCO[C@H](CN(C)C(=O)Nc2ccc3c(c2)OCO3)[C@@H](C)CN([C@H](C)CO)C(=O)c2cc(NC(=O)Nc3ccc(C(F)(F)F)cc3)ccc2O1
  -2	0.4	-2
5) CCCNC(=O)C[C@H]1CC[C@H]2[C@@H](COC[C@H](O)CN2C(=O)c2ccccn2)O1
  12	1.6	13
6) C[C@H]1CN([C@@H](C)CO)C(=O)c2cc(NC(=O)CCC(F)(F)F)ccc2O[C@H]1CN(C)Cc1ccc(-c2ccccc2)cc1
  -2	0.3	-2
7) Cc1ccccc1S(=O)(=O)N1CC[C@@H]2[C@@H](CO)N(C)c3ccc(-c4ccc(F)cc4)cc3[C@@H]21
  nt	nt	?
8) C[C@@H]1CN([C@@H](C)CO)C(=O)c2cc(N(C)C)ccc2O[C@@H]1CN(C)S(=O)(=O)c1ccc(F)cc1
  2	-6.9	-5
9) O=C(Nc1ccccc1F)N1[C@@H]2CNC[C@H]1C2c1ccc(-c2cccnc2)cc1 (stereo not given in full)
  17&16	-4.8&4.6	12&21
10) CN1C(=O)c2cc(NC(=O)c3cccc(F)c3)ccc2OC[C@H]2O[C@@H](CC(=O)NCc3ccccc3Cl)CC[C@@H]21
  -1	7.3	6
11) CN(C)CC#Cc1ccc([C@H]2[C@@H](CO)N3C(=O)CN(C(=O)Cc4ccccc4)C[C@H]23)cc1
  5	1.4	6
12) CO[C@H]1CN(C)C(=O)c2ccc(NC(=O)C3CCOCC3)cc2OC[C@@H](C)N(C(=O)c2ccccc2)C[C@@H]1C
  1	2.2	3
13) CCCNC(=O)N1CC2(CCN(C)CC2)c2c([nH]c3cc(OC)ccc23)[C@@H]1CO
  -11	12	1
14) COc1ccc(-c2ccc3n(c2=O)C[C@H]2[C@H](CO)[C@@H](C(=O)NCC4CC4)N(C(=O)NC(C)C)[C@@H]32)cc1
  2	1.7	3
15) COc1ccc(NC(=O)N2CC[C@@H]3[C@H]2c2cc(C4=CCCCC4)ccc2N(C)[C@H]3CO)cc1
  -4	2.9	-1
16) CN1C(=O)c2cc(NC(=O)C3CCCC3)ccc2OC[C@@H]2O[C@@H](CC(=O)NCC(F)(F)F)CC[C@@H]21
  0	1.4	2
17) C[C@H](CO)N1C[C@H](C)[C@@H](CN(C)Cc2cccc(O)c2)OCc2ccccc2-c2ccccc2C1=O
  2	-2.5	0
18) N#C[C@@H]1[C@@H](c2ccccc2)[C@@H](CO)N1C(=O)Cc1ccccc1
  -1	-0.7	-1
19) C[C@@H](NC(=O)C[C@@H]1C[C@H]2c3cc(NC(=O)Nc4ccccc4F)ccc3O[C@H]2[C@H](CO)O1)c1ccccc1
  nt	nt	?
20) Cc1cccc(CN(C)C[C@H]2OCc3cnnn3CCCC(=O)N([C@@H](C)CO)C[C@@H]2C)c1
  -4	4.6	1

Single records, from the list above. Values in the order: DUX4 inh difference | DUX4 inh control | DUX4 inh
Cc1cccc(CN(C)C[C@H]2OCc3cnnn3CCCC(=O)N([C@@H](C)CO)C[C@@H]2C)c1 is entered as -4 | 4.6 | 1
N#C[C@@H]1[C@@H](c2ccccc2)[C@@H](CO)N1C(=O)Cc1ccccc1 is entered as -1 | -0.7 | -1
CO[C@H]1CN(C)C(=O)c2ccc(NC(=O)C3CCOCC3)cc2OC[C@@H](C)N(C(=O)c2ccccc2)C[C@@H]1C is entered as 1 | 2.2 | 3
C[C@@H](NC(=O)C[C@@H]1C[C@H]2c3cc(NC(=O)Nc4ccccc4F)ccc3O[C@H]2[C@H](CO)O1)c1ccccc1 is entered as nt | nt | ?
C[C@H](CO)N1C[C@H](C)[C@@H](CN(C)Cc2cccc(O)c2)OCc2ccccc2-c2ccccc2C1=O is entered as 2 | -2.5 | 0

(cont.)
Under each structure – DUX4 inh difference	DUX4 inh control	DUX4 inh
21) O=C(NC1CCCC1)N1CC2(C1)[C@@H](c1ccccc1)[C@@H](CO)N2CC1CCCC1
  nt	nt	?
22) Cc1cccc(S(=O)(=O)N2CC[C@@H]3[C@H]2c2cc(C#Cc4cccc(F)c4)ccc2N[C@@H]3CO)c1
  -1	12	11
23) C[C@H](CO)N1C[C@H](C)[C@@H](CN(C)C(=O)Nc2ccc3c(c2)OCO3)OCc2cn(nn2)CCCC1=O
  nt	nt	?
24) COc1ccc(S(=O)(=O)Nc2cccc3c2O[C@@H](CN(C)Cc2ccc(C(F)(F)F)cc2)[C@@H](C)CN([C@H](C)CO)C3=O)cc1
  8	-6.5	2
25) CCC(=O)N1CC(=O)N2[C@@H](CO)[C@H](c3ccc(-c4ccccc4F)cc3)[C@@H]2C1
  1	-0.4	1
26) CCN(C[C@H]1[C@H](c2ccc(-c3cccnc3)cc2)[C@H](CO)N1C(C)=O)C(C)=O
  -1	1.1	0
27) CN(C)C(=O)c1ccc(-c2ccc3c(c2)[C@@H]2[C@@H](CCN2C(=O)c2ccccn2)[C@@H](CO)N3)cc1
  -3	-6.3	-10
28) CN(C)CC(=O)N1CC2(C1)[C@H](c1ccccc1)[C@@H](CO)N2S(=O)(=O)c1ccccc1
  1	5.2	6
29) CCCNC(=O)N1CC2(CN(S(=O)(=O)c3ccc(OC)cc3)C2)c2c(n(C)c3cc(OC)ccc23)[C@@H]1CO
  nt	nt	?
30) CO[C@@H]1CN(C)C(=O)c2cccc(C#N)c2OC[C@H]2O[C@H](CC[C@H]2OC)CCN(C)C(=O)[C@H]1C
  -2	4.7	3
31) COC(=O)[C@H]1[C@H](CO)[C@H]2Cn3c(ccc(-c4ccc(F)cc4)c3=O)[C@H]2N1Cc1ccccn1
  -1	-2.3	-3
32) O=C(c1cnccn1)N1C[C@@H]2[C@H](c3ccccc31)[C@H](CO)N2Cc1ccccc1Cl
  0	-0.7	-1
33) CCCNC(=O)[C@H]1[C@H](CO)[C@H]2Cn3c(ccc(-c4cccc(F)c4)c3=O)[C@@H]1N2Cc1ccccc1F
  -5	-3.7	-9
34) CNC[C@@H]1Oc2c(NC(=O)c3cnccn3)cccc2C(=O)N([C@H](C)CO)C[C@@H]1C
  -2	2.1	0
35) CCC(=O)N1[C@@H]2c3cccc(=O)n3C[C@H]1[C@H](CO)[C@H]2C(=O)NC1CCC1
  3	1.8	5
36) C[C@H](CO)N1C[C@H](C)[C@@H](CN(C)S(=O)(=O)c2cn(C)cn2)OCCCC[C@H](C)Oc2ccc(NC(=O)Nc3ccc(C(F)(F)F)cc3)cc2C1=O
  -1	-0.7	-2
37) O=C(C1CCCC1)N1[C@@H](CO)[C@@H](c2ccccc2)C12CN(Cc1cccc(Cl)c1)C2
  nt	nt	?
38) Cc1cccc(S(=O)(=O)N2CCCCN3[C@@H](CO)[C@@H](c4ccc(C#C[C@H](C)O)cc4)[C@@H]3C2)c1
  nt	nt	?
39) C/C=C/c1ccc([C@@H]2[C@H]3CN(C(=O)Nc4ccc(F)cc4)CCCCN3[C@H]2CO)cc1
  -10	19	9
40) O=C(NC1CCCC1)[C@H]1[C@H](CO)[C@H]2Cn3c(ccc(-c4ccccc4)c3=O)[C@H]2N1CCc1ccccc1
  nt	nt	?
41) C[C@H](CO)N1C[C@H](C)[C@@H](CN(C)Cc2ccc(C(=O)O)cc2)Oc2c(NS(=O)(=O)c3ccccc3)cccc2C1=O
  1	0.2	1
42) CO[C@H]1CN(C)C(=O)c2ccc(NS(=O)(=O)CC(F)(F)F)cc2OC[C@@H](C)N(C(=O)NC(C)C)C[C@H]1C
  -5	5.4	0
43) COc1cccc(NC(=O)N2CC3(C2)[C@H](c2ccccc2)[C@@H](CO)N3C(C)=O)c1
  -6	14	8
44) CC=Cc1ccc2n(c1=O)C[C@H]1[C@H](CO)[C@@H](C(=O)NCc3ccccc3)N(C)[C@@H]21 (mixture of isomers)
  -6	3.0	-3
45) COc1ccccc1S(=O)(=O)N1CC[C@@H]2[C@@H](CO)N(C)c3ccc(-c4cccc(C#N)c4)cc3[C@@H]21
  -12	2.9	-9
46) CO[C@H](CN(C)Cc1ccc2c(c1)OCO2)[C@@H](C)CN(C(=O)Nc1ccc(F)cc1)[C@H](C)CO
  1	-3.3	-2
47) C[C@H](CO)N1C[C@H](C)[C@H](CN(C)S(=O)(=O)c2cn(C)cn2)OCc2ccccc2-c2ccccc2C1=O
  -10	25	15
48) COc1ccc(C#Cc2ccc3c(c2)[C@H]2[C@H](CCN2C(=O)NC(C)C)[C@H](CO)N3C)cc1
  3	5.4	8
49) O=C(Nc1ccccc1F)N1C[C@@H]2[C@H](c3ccccc31)[C@H](CO)N2C(=O)c1ccccc1F
  -4	1.3	-3
50) COc1ccc(CN(C)C[C@H]2OCCCC[C@@H](C)Oc3ccc(NS(C)(=O)=O)cc3C(=O)N([C@H](C)CO)C[C@@H]2C)cc1
  3	-2.9	0
51) O=C(C[C@H]1CC[C@H]2[C@@H](COC[C@@H](O)CN2S(=O)(=O)c2ccc(Oc3ccccc3)cc2)O1)NC1CCC1
  7	-4.1	3
52) CCC(=O)N1CC2(C1)[C@H](c1ccccc1)[C@@H](CO)N2S(=O)(=O)Cc1ccccc1
  -5	0.3	-4
53) O=C(C[C@@H]1CC[C@@H]2[C@H](COC[C@@H](O)CN2C(=O)CCN2CCCCC2)O1)NCc1ccncc1
  1	3.3	4
54) CO[C@H](CN(C)Cc1cc(F)ccc1F)[C@@H](C)CN([C@H](C)CO)S(=O)(=O)c1ccc(C)cc1
  -7	3.9	-3
55) COC(=O)c1ccc(CN2CC(=O)N3[C@@H](CO)[C@@H](c4ccc(-c5ccccc5F)cc4)[C@@H]3C2)cc1
  1	-4.8	-4
56) COc1ccccc1S(=O)(=O)N(C)C[C@@H]1OCc2ccccc2-c2ccccc2C(=O)N([C@H](C)CO)C[C@H]1C
  -12	8.4	-3
57) CCN1[C@@H]2Cn3c(ccc(-c4ccccc4OC)c3=O)[C@H]1[C@@H](C(=O)NCc1ccccn1)[C@@H]2CO
  9	-1.9	7
58) CCCNC(=O)C[C@H]1CC[C@@H]2[C@H](COC[C@@H](O)CN2Cc2ccccc2F)O1
  13	-4.2	9
59) CN(C)C(=O)[C@@H]1[C@@H](CO)[C@@H]2Cn3c(ccc(C4=CCCC4)c3=O)[C@H]1N2CC1CCOCC1
  -12	6.5	-6
60) N#Cc1cccc(-c2ccc([C@@H]3[C@@H](CO)N4CCCCN(C(=O)Nc5cccc(F)c5)C[C@H]34)cc2)c1
  nt	nt	?
61) COCC(=O)Nc1ccc2c(c1)C(=O)N(C)[C@H]1CC[C@@H](CC(=O)NCC(F)(F)F)O[C@H]1CO2
  3	0.7	3
62) Cc1noc(C)c1NC(=O)N(C)C[C@@H]1OCc2ccccc2-c2c(n(C)c3ccccc23)C(=O)N([C@@H](C)CO)C[C@@H]1C
  -4	1.3	-3
63) OC[C@@H]1[C@@H](c2ccccc2)C2(CN(CC3CCOCC3)C2)N1Cc1cncnc1
  6	3.7	9
64) COc1ccc(S(=O)(=O)N(C)C[C@@H]2OCc3cn(nn3)CCCC(=O)N([C@@H](C)CO)C[C@@H]2C)cc1
  4	-1.2	3
65) C[C@@H]1CN([C@H](C)CO)C(=O)c2c(c3ccccc3n2C)-c2ccccc2CO[C@@H]1CN(C)C(=O)[C@H]1CCCN1C
  15	4.9	20
66) O=C(N[C@H]1CC[C@@H](CCNS(=O)(=O)c2ccc(Cl)cc2)O[C@H]1CO)c1ccccn1
  1	0.5	2
67) C[C@@H](NC(=O)[C@H]1[C@H](CO)[C@H]2Cn3c(ccc(C4=CCCCC4)c3=O)[C@H]2N1C)c1ccccc1
  -6	-1.1	-7
68) C[C@H]1CN([C@@H](C)CO)C(=O)c2cc(NC(=O)c3ccncc3)ccc2O[C@@H]1CN(C)CC1CCCCC1
  -2	-1.2	-3
69) CO[C@@H]1CN(C)C(=O)c2ccc(NC(=O)Nc3ccc4c(c3)OCO4)cc2OC[C@H](C)NC[C@H]1C
  -16	8.6	-8
70) CN1[C@@H]2Cn3c(ccc(C4=CCCC4)c3=O)[C@H]1[C@@H](C(=O)N1CCOCC1)[C@@H]2CO
  1	-1.8	-1

More results.
Under each structure – DUX4 inh difference	DUX4 inh control	DUX4 inh
71) C[C@@H]1CN([C@H](C)CO)C(=O)Cc2cc(NC(=O)C3CCCCC3)ccc2O[C@@H]1CN(C)S(=O)(=O)c1ccc(F)cc1
  -2	2.1	0
72) CC(=O)NC[C@@H]1[C@@H](c2ccccc2)[C@H](CO)N1C(=O)Cc1ccncc1
  3	0.8	4
73) COc1ccc(S(=O)(=O)Nc2ccc3c(c2)C(=O)N([C@@H](C)CO)C[C@@H](C)[C@H](CN(C)C(=O)Nc2cccc4ccccc24)OCCCC[C@H](C)O3)cc1
  2	-2.7	-1
74) COc1ccc(S(=O)(=O)Nc2ccc3c(c2)CC(=O)N([C@@H](C)CO)C[C@@H](C)[C@H](CN(C)Cc2ccc(C(=O)Nc4ccccc4N)cc2)O3)cc1
  -2	3.6	2
75) C[C@H](CO)N1C[C@H](C)[C@@H](CN(C)S(=O)(=O)c2ccsc2)OCc2ccccc2-c2ccccc2C1=O
  -12	6.9	-5
76) COc1cccc(-c2ccc3c(c2)[C@@H]2[C@@H](CCN2C(=O)c2ccc(F)cc2)[C@H](CO)N3C)c1
  nt	nt	?
77) O=C(C1CCOCC1)N1CC[C@H]2[C@H](CO)Nc3ccc(-c4cccc(F)c4)cc3[C@H]21
  12	-5.1	7
78) O=C(C1CCCCC1)N1C[C@@H]2[C@H](c3ccccc31)[C@@H](CO)N2C(=O)c1ccccc1F
  -3	3.0	0
79) C[C@@H]1CCCCO[C@H](CN(C)C(=O)Nc2ccc(C(F)(F)F)cc2)[C@H](C)CN([C@@H](C)CO)C(=O)c2cc(N(C)C)ccc2O1
  -2	2.8	0

Screening results deposited in PubChem BioAssay by Broad Institute.

An excerpt; the hit share may differ from the screen's.
